Compound activity (PubChem)
2A StopGo – FMDV 2A StopGo reporter, luciferase signal; Potency, µM (series often up to 57.9 µM), without a hit: at the highest dose signal change, negative = less light; 410,000 compounds, 1.2% hits; human cells with a luciferase reporter of 2A StopGo recoding; control for the full effect not named in the record; active = well fitted falling curve with a large enough effect; inconclusive = small, poorly fitted or top-dose-only effect; inactive = no such curve, though single readings can be large or run the other way; tested in HEK293T cells; note: % is set by controls: 0 for no effect and ±100 for the full control effect; nearly all actives have a fitted effect of over 45% in size; luciferase light after 4 h
Cruzain inh Det – blocks cruzain activity in presence of Triton detergent; P25779; purified cruzain, Z-FR-AMC fluorescence, 0.01% Triton; Potency, µM, for inactives: max response, negative = inhibition, hits mostly inhibitors; AID 1478; 200,000 compounds, 0.43% hits; active = well fitted curve in the direction sought with a large enough effect; inconclusive = small, poorly fitted or top-dose-only effect, or another doubt; inactive = no such curve, though single readings can be large; an effect the other way counts as inactive or inconclusive;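 note: plate controls were neutral wells for no effect and buffer without enzyme for full effect; nearly all actives have a fitted effect of over 40% in size; top concentration of the series not given in the record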
Target sequence (P25779 123-467 limits assumed): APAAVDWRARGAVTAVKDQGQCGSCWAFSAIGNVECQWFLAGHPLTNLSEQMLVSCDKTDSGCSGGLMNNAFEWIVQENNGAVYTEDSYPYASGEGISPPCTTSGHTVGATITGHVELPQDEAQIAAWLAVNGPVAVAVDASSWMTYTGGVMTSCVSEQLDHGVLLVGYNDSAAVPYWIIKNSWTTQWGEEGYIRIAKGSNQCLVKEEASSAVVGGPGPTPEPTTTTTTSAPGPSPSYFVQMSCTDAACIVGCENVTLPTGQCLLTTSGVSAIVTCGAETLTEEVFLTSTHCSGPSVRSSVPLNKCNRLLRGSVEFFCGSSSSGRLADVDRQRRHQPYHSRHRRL
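Steps: dispense cruzain (1.5 nM final) in acetate buffer pH 5.5 with DTT and 0.01% Triton X-100; pin-transfer compounds; incubate 15 min RT; add Z-FR-AMC (2 uM final); read fluorescence every 30 s, using the 60 s intensity change.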
SARS PLpro yeast – inhibitors of SARS-CoV papain-like protease in yeast; S. cerevisiae expressing SARS-CoV PLpro, growth rescue; control for the full effect not named in the record; Potency, µM (series often up to 32.9 µM), for the others: at the top dose activity, positive = growth rescue; 330,000 compounds, 0.19% hits; AID 485353; note: 0% is about no effect; nearly all actives have a fitted effect of over 55% in size; growth read by luminescence after 48 h
NS1 function inh – inhibitors of influenza NS1 protein function. AID 2326. 270,000 compounds, 0.4% hits. S. cerevisiae slowed by influenza A NS1, growth recovery by OD600. Potency, µM (titrated, usually from 46.1 µM), without a hit: top-dose activity, positive = more growth; note: actives are rising curves; nearly all actives have a fitted effect of over 50% in size
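Compounds were scored for reversing the slow growth caused by influenza A NS1 in S. cerevisiae, measured by optical density at 600 nm. Assay medium contained 2% galactose at pH 6.0; NS1-free yeast of the same strain were the positive control.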
MARV entry inh – blocks Marburg virus binding to or entry into cells. AID 540276. Marburg virus pseudotyped entry inhibition, cell reporter; control for the full effect not named in the record; about a third of the inactives were read at about 46 µM. Potency, µM (top dose mostly 37.8 µM), for the others: at the highest dose activity change, negative = inhibition, most hits filed as inhibitors. 300,000 compounds, 1.8% hits; active = well fitted inhibition curve with a large enough effect; inconclusive = small, poorly fitted or top-dose-only effect, or effect the other way; inactive = flat fitted curve, though single readings scatter; tested in HEK293 cells; about a fifth of its hits are not listed in these tables; note: % is set by controls: 0 for no effect and ±100 for the full control effect; luciferase read-out
Cruzain noTriton – inhibitors of Trypanosoma cruzi cruzain without detergent; purified cruzain, Z-FR-AMC fluorescence, no detergent; 200,000 compounds, 2.3% hits; Potency, µM, for the others: max response, negative = inhibition, hits mostly inhibitors; active = well fitted curve in the direction sought with a large enough effect; inconclusive = small, poorly fitted or top-dose-only effect, or another doubt; inactive = no such curve, though single readings can be large; an effect the other way counts as inactive or inconclusive;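 note: plate controls were enzyme without inhibitor for no effect and buffer without enzyme for full effect; nearly all actives have a fitted effect of over 40% in size; top concentration of the series not given in the record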
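Purified cruzain at 1.5 nM, pre-incubated 15 min with compound at room temperature in 100 mM sodium acetate pH 5.5, 5 mM DTT, 0.00005% Triton X-100. Reaction started with 2 uM Z-FR-AMC; AMC fluorescence increase over 60 s gives rate.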
RE007 growth inh – less growth of the S. pombe RE007 Vpr strain. AID 651644. Potency, µM (titrated, usually from 92.2 µM), for the others: at the top dose activity change, negative = less growth. 360,000 compounds, 0.21% hits. S. pombe RE007 Vpr strain, BacTiter-Glo ATP luminescence, 24 h; control for the full effect not named in the record; active = well fitted falling curve with a large enough effect; inconclusive = small, poorly fitted or top-dose-only effect; inactive = no such curve, though single readings can be large or run the other way;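 note: % is set by controls: 0 for no effect and ±100 for the full control effect; nearly all actives have a fitted effect of over 50% in size; the assay follows cell death caused by Vpr and the record does not say whether a fall means rescue or toxicity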
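Fission yeast strain RE007, carrying one chromosomally integrated HIV-1 vpr copy, was seeded at OD 0.01 in PMG+AL medium with 23 nL pinned compound. After 24 h at 30 °C and 99% humidity, viability was read by BacTiter-Glo luminescence.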
LASV entry inh – Lassa virus entry inhibition; Lassa virus pseudotype entry inhibition, cell reporter; control for the full effect not named in the record; Potency, µM (series often up to 37.9 µM), for the others: at the highest dose activity change, negative = inhibition, usual class: inhibitors; 300,000 compounds, 1.2% hits; active means well fitted inhibition curve with a large enough effect; inconclusive means small, poorly fitted or top-dose-only effect, or effect the other way; inactive means flat fitted curve, though single readings scatter; tested in HEK293 cells; note: % is set by controls: 0 for no effect and ±100 for the full control effect; nearly all actives have a fitted effect of over 50% in size; luciferase read-out
An asterisk follows results filed as active; ? = inconclusive; / = not tested or not shown; & = joins results of further samples; [ ] = dose if it differs, or a comment. Unless noted, calls come from the whole dose curve; as a rule, active means well fitted rising curve with a large enough effect; inconclusive means small, poorly fitted or top-dose-only effect; inactive means no such curve, though single readings can be large or run the other way. Potency is the fitted concentration of half-maximal effect.

SMILES	2A StopGo	Cruzain inh Det	SARS PLpro yeast	NS1 function inh	MARV entry inh	Cruzain noTriton	RE007 growth inh	LASV entry inh
C/C(=N\NS(=O)(=O)c1ccc(C)c([N+](=O)[O-])c1)c1cccs1	22%	/	-2%	/	?	/	-5%	-26%
CC(=O)NCCNc1nc2c(-c3cccc(C)c3)nnn2c2ccccc12	-3%	/	-3%	2%	/	/	0%	/
O=C(CSc1nc2[nH]ncc2c(=O)[nH]1)NCc1ccc(F)cc1	-4%	-1.1%	24%	-3%	?	-11%	2%	1%
CCOCCCN(C(=O)Cn1nnc(-c2ccc(OC)c(OC)c2)n1)C(C(=O)NCC1CCCO1)c1ccc(F)cc1 (configuration not stated)	21%	/	1%	-7%	0%[46.1 µM]	/	-4%	2%
CCOC(=O)N1CCN(C(=O)c2ccc3nc4ccc(Cl)cc4c(=O)n3c2)CC1	1%	6.7%	-1%	20%	?	?	8%	?
COc1ccc(CCNC(=O)c2cc(-c3cc(Cl)cc(Cl)c3)oc2C)cc1	-2%	-4.9%	3%	11%	12%	0%	-5%	?
CCOC(=O)c1c(-c2ccc(C)o2)csc1NC(=O)CN1CCOCC1	0%	-4.2%	-9%	-90%	?	?	-24%	?
COCc1cc(OC(=O)N(C)C)nc(-c2ccc(C)c(Cl)c2)n1	4%	/	0%	-6%	-11%[46.1 µM]	/	-8%	?
O=C(Nc1ccc(O)c2c(=O)cc(-c3cccc(Cl)c3)oc12)c1cccc(Cl)c1	-21%	/	1%	-1%	?	/	-10%	/
O=C(OCc1ccccc1C(F)(F)F)c1cc([N+](=O)[O-])ccc1N1CCOCC1	-10%	/	-13%	14%	?	/	-5%	?
CCOC(=O)Cn1ncc2c(=O)oc3ccccc3c21	3%	-1.2%	7%	0%	-12%	5%	14%	?
OCCNCCCCOc1ccc(OCc2ccccc2)cc1	30%	-6.9%	-6%	0%	?	3%	8%	?
CC(CCc1ccccc1)NC(=O)N1CCOCC1 (configuration not stated)	-8%	1.5%	5%	-5%	9%	-2%	14%	5%
CCOC(=O)CNC(=O)CNC(=O)c1ccc(OC)cc1	-1%	-0.6%	5%	-1%	3%&3%	-15%	7%	-1%
COc1cc(Cl)c(C)cc1Nc1nnc(-n2nc(C)cc2C)c2ccccc12	-25%	0.0%	/	/	/	-1%	/	-2%[46.1 µM]
COCCNC(=O)c1csc2c1CCCC2	/	-2.0%	0%	-5%	15%	-2%	-5%	25%
C/C(=C\C(=O)O)C12CC3CC(CC(C3)C1)C2	-18%	1.1%	-15%	-129%	10%	-13%	-30%	-6%
Cc1noc(/C=C/N(C)C)c1S(=O)(=O)N1CCC(C(=O)Nc2ccc(Cl)cc2)CC1	-9%	/	2%	7%	/	/	23%	/
CCCOC(=O)CSc1ncnc2sc3c(c12)CCC(C)C3 (configuration not stated)	54%[activator]	-4.7%	/	/	-1%[46.1 µM]	4%	/	?
Cc1ccc(S(=O)(=O)NC(=O)c2ccccc2F)cc1	-5%	/	3%	-23%	0%[46.1 µM]	/	-4%	?
O=C(CSc1nnc(-c2ccncc2)n1-c1ccccc1)Nc1ccc(Cl)c(Cl)c1	?	-1.5%	/	/	/	-4%	/	2%[46.1 µM]
O=S(=O)(Cc1cc(N2CCOCC2)nc(-c2ccccn2)n1)c1ccccc1	?	/	-2%	/	?	/	27%	?
CCc1nnc(NC(=O)CCC(=O)N2CCCC(O)C2)s1 (configuration not stated)	-15%	/	0%	6%	4%[46.1 µM]	/	0%	4%[46.1 µM]
Cn1c2ccccc2c2cc(C(=O)NNC(=O)CCl)sc21	16µM*	/	8%	/	?	/	-5%	-18%
Cc1[nH]c(=O)[nH]c(=O)c1S(=O)(=O)Nc1ccc(Cl)c([N+](=O)[O-])c1	17%	/	-1%	1%	6%	/	-6%	4%
CC(=O)N1CCN(c2ccc(NC(=S)NC(=O)c3ccc(C)c([N+](=O)[O-])c3)cc2)CC1	-18%	/	-2%	10%	23%	/	-1%	22%
COc1cccc(-n2c(=O)c3sc4ccccc4c3n(CC(=O)NC3CCCCC3)c2=O)c1	0%	5.2%	/	/	?	?	/	5%[46.1 µM]
CCc1ccccc1NC(=O)c1ccc(F)c(S(=O)(=O)N2CCN(c3ccccc3OC)CC2)c1	?	0.6%	/	/	/	-26%	/	?
COc1ccc(C(=O)NCCn2cc(SCC(=O)NCc3ccco3)c3ccccc32)cc1	-28%	1.1%	1%	7%	-17%	-15%	-15%	-5%
Clc1ccc(Oc2nc3c(Cl)cccc3s2)cc1Cl	5%	/	-1%	-49%	?	/	3%	-13%[46.1 µM]
Cc1ccc(CNC(=O)c2cc(Sc3ccc(F)cc3F)nc3ccccc23)cc1	-13%	1.4%	/	/	/	-6%	/	?
CN(C)C(CNc1ncnc2ccccc12)c1c(F)cccc1Cl (configuration not stated)	-15%	/	4%	-4%	-9%[46.1 µM]	/	3%	-3%
Cc1nc2ccc(NC(=O)c3cccc(S(=O)(=O)N4CC(C)OC(C)C4)c3)cc2s1 (configuration not stated)	20µM*	-2.6%	1%	3%	-28%[46.1 µM]	?	-3%	?
CN(C)c1ccnc(Nc2ccc(F)cc2)c1C#N	6%	/	-1%	4%	?	/	-12%	5%[46.1 µM]
CCOc1ccccc1NC(=O)COc1cccc(-n2cnnn2)c1	-4%	-3.0%	15%	-8%	-25%&-25%	0%	10%	5%
CCNc1nc(SC(C(C)=O)C(C)=O)nc(N(C)C)n1	-19%	5.0%	-4%	2%	21%	-2%	4%	3%
O=C1Nc2ccccc2C1Cc1nc2ccccc2c(=O)n1-c1ccccc1 (configuration not stated)	-13%	/	-2%	5%	/	/	7%	/
O=C(NCCc1ccccc1)C1CCN(S(=O)(=O)c2ccccc2)CC1	3%	-6.2%	3%	-1%	?	-3%	3%	-9%
CC(=O)c1cccc(NC(=O)CSc2nnnn2C2CCCC2)c1	11%	/	9%	-1%	6%[46.1 µM]	/	8%	-5%[46.1 µM]
COCCCn1c(=O)c2ccccc2c2ccccc2c1=O	-20%	-1.6%	0%	-36%	8%[46.1 µM]	13%	18%	-13%

By substructure, the compounds so far with a thiophene ring, fused or not.
SMILES	2A StopGo	Cruzain inh Det	SARS PLpro yeast	NS1 function inh	MARV entry inh	Cruzain noTriton	RE007 growth inh	LASV entry inh
C/C(=N\NS(=O)(=O)c1ccc(C)c([N+](=O)[O-])c1)c1cccs1	22%	/	-2%	/	?	/	-5%	-26%
CCOC(=O)c1c(-c2ccc(C)o2)csc1NC(=O)CN1CCOCC1	0%	-4.2%	-9%	-90%	?	?	-24%	?
COCCNC(=O)c1csc2c1CCCC2	/	-2.0%	0%	-5%	15%	-2%	-5%	25%
CCCOC(=O)CSc1ncnc2sc3c(c12)CCC(C)C3 (configuration not stated)	54%[activator]	-4.7%	/	/	-1%[46.1 µM]	4%	/	?
Cn1c2ccccc2c2cc(C(=O)NNC(=O)CCl)sc21	16µM*	/	8%	/	?	/	-5%	-18%
COc1cccc(-n2c(=O)c3sc4ccccc4c3n(CC(=O)NC3CCCCC3)c2=O)c1	0%	5.2%	/	/	?	?	/	5%[46.1 µM]

Continuation.
SMILES	2A StopGo	Cruzain inh Det	SARS PLpro yeast	NS1 function inh	MARV entry inh	Cruzain noTriton	RE007 growth inh	LASV entry inh
Cc1ccc(NC(=O)NCc2ccncc2)cc1Cl	2%	/	0%	-2%	-1%[46.1 µM]	/	6%	1%
CCOC(=O)C1CCCN(Cc2cc(OC)c(O)c(OC)c2)C1 (configuration not stated)	19%	-1.0%	4%	1%	2%	-5%	11%	-3%
CCCCn1c(SCc2ccc(C(=O)OC)o2)nc2cc(S(N)(=O)=O)ccc21	/	-5.3%	4%	-15%	-37%	-2%	0%	?
c1ccc(-c2nc(NCc3cccs3)c3ccccc3n2)cc1	-20%	/	-58%	-99%	-27%[46.1 µM]	/	-19%	-1%
CCN(C(=O)c1cc2c(s1)-c1c(C)cccc1OC2)c1ccccc1F	9%	-14%	/	/	20%[46.1 µM]	-22%	/	/
C=C(Br)CN1CCN(CC(=C)Br)CC1	-8%	-0.6%	-3%	6%	3%	-8%	-19%	6%
COc1cc2c(cc1OC)C(c1ccc(F)cc1)N(c1ccc(F)cc1)C(=O)C2 (configuration not stated)	-27%	0.7%	/	/	-17%[46.1 µM]	-6%	/	-16%[46.1 µM]
O=S(=O)(Cc1ccccc1)Nc1ccccc1Br	11%	/	-6%	-21%	28%	/	-6%	?
O=C(Cn1nc(-c2ccccc2)ccc1=O)NCCCN1CCOCC1	-13%	/	1%	2%	/	/	-2%	/
CCC(CC)c1nnc(NC(=O)C2CC(=O)N(C3CCCC3)C2)s1 (configuration not stated)	-13%	/	1%	-7%	1%[46.1 µM]	/	8%	1%[46.1 µM]
Cn1c2ccccc2c2cnn(CC(=O)Nc3ccccc3F)c(=O)c21	12%	2.1%	/	/	-3%[46.1 µM]	11%	/	10%[46.1 µM]
O=C(Nc1ccccc1)N1CCSc2ccccc21	-3%	/	0%	-2%	/	/	-3%	/
COCCN(C(=S)Nc1cccc(OC)c1)C1CCN(C(C)C)CC1	-18%	1.1%	-31%	-8%	3%	4%	-7%	4%
COc1ccccc1CNC(=O)CCC1N=C2c3ccccc3N=C(SCc3ccccc3Cl)N2C1=O (configuration not stated)	-29%	0.7%	/	/	/	10%	/	?
N#C/C(=C\c1ccccc1)C(=O)Nc1sc2c(c1C(N)=O)CCC2	51%[activator]	-2.1%	/	/	/	3%	/	11%[46.1 µM]
Cc1cc(NS(=O)(=O)c2ccccc2)no1	-17%	-0.2%	-2%	1%	/	-5%	-14%	/
Cc1ccc(C(=O)O)cc1-c1ccc(/C=C2/NC(=O)N(c3ccccc3)C2=O)o1	4%	-12%	21%	6%	-29%&-29%	?	3%	-7%
